High-throughput results (PubChem)
KCNQ2 enhance = potentiators of rat KCNQ2 potassium channel | CHO-K1 KCNQ2, FluxOR thallium flux fluorescence; hits give high values | Potassium voltage-gated channel subfamily KQT member 2 (Rattus norvegicus), O88943 | B-score at 10 µM | AID 2239, 2010 | 310,000 tested, 0.54% active;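 active = fluorescence ratio B-score at least 3 SD of library B-scores, with initial fluorescence B-score within 3 SD, cut at about 5.3 in these data; same plate scores as AID 2156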;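 note: B-score of peak minus minimum over baseline fluorescence ratio after K+ and Tl+ stimulus; positive B-score means potentiation of KCNQ2 with more thallium influx and brighter signal; only the inactives scoring about 0 or higher are listed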
Target sequence (O88943 whole entry, looked up): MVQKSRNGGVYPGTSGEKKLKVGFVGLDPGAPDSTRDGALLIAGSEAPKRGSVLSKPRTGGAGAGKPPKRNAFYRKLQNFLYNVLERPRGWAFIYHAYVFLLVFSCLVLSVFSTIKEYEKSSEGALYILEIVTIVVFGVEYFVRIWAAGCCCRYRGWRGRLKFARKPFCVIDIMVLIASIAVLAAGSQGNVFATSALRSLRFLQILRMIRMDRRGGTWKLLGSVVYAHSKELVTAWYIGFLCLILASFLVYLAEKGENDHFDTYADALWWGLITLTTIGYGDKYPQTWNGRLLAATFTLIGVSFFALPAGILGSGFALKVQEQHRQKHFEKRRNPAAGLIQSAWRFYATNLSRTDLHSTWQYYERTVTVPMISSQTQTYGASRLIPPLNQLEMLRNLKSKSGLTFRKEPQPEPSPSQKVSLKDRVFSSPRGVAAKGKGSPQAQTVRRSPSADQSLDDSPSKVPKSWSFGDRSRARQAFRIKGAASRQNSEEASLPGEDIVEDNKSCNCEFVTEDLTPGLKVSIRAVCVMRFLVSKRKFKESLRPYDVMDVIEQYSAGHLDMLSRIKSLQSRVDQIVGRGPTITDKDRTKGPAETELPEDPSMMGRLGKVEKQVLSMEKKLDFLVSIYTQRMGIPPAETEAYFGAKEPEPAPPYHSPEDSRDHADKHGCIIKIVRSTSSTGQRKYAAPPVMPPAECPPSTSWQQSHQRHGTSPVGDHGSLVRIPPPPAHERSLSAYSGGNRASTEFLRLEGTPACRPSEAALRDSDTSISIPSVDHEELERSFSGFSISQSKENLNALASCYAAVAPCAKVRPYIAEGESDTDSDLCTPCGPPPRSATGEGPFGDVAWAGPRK
KCNQ2 enhance baseline = further read-out of KCNQ2 enhance, marked with its call; B-score; compound at 10 µM; measured here: initial fluorescence intensity artifact check;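 brightness before thallium and not channel activity; 0 = typical well and far values either way flag optical interference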
The depositor's hits bear a star.

SMILES | KCNQ2 enhance | KCNQ2 enhance baseline
O=C(NCC1CCCO1)c1cccc(NC(=O)c2ccco2)c1 (stereo unspecified) | 0.74 | -1.45
O=c1cc(CNCCCO)c2ccccc2[nH]1 | 0.99 | 0.47
O=C(Nc1ccccc1)NC1CCN(Cc2ccccc2)CC1 | 0.65 | -1.85
COC(=O)C1C(c2ccccc2)NC(=O)NC1(O)C(F)(F)Cl (stereo unspecified) | 1.55 | -2.66
CNC(=O)CSc1nnc(C2CC2)n1-c1ccccc1 | 0.62 | -0.43
O=C(N1CCCC1)C12CC3CCC(CC(C3)C1)C2 | 0.2 | -0.55
C=CCN1C(=O)c2ccc(C(=O)N3CCN(S(=O)(=O)c4cccc(F)c4)CC3)cc2C1=O | 1.72 | 0.2
CCSc1nnc(NC(=O)Cc2cccc(OC)c2)s1 | 1.08 | -0.31
O=P(O)(O)COc1ccccc1P(=O)(c1ccccc1)c1ccccc1 | 0.52 | 0.03
COc1cccc(NC(=O)c2ccc3c(c2)CCCC3)c1 | 4.32 | -1.85
CCOC(=O)N/N=C/c1cccnc1 | 1.76 | 0.71
CCOc1ccccc1N1CCN(C(=O)CC(C)C)CC1 | 0.17 | -0.21
CN(CCc1ccccn1)C(=O)c1ccc(OC2CCN(CCc3ccccc3)CC2)cc1 | 0.64 | -1.99
Cc1cc(C(F)(F)F)nn1CC(=O)N1CCCCC1C (stereo unspecified) | 1.78 | -1.37
COc1ccc(S(=O)(=O)N(C)CC(=O)NCc2cccnc2)cc1OC | 2.71 | -2.61
CC(=O)NN1C(=O)c2ccccc2NC1c1ccc([N+](=O)[O-])o1 (stereo unspecified) | 1.05 | -0.19
C/C(=C\c1ccccc1)C(=O)NCc1ccco1 | 0.03 | -1.12
CCCN(CC1CC1)C(=S)Nc1ccc(C(C)=O)cc1 | 0.7 | 1.31
COc1ccccc1NC(=O)C1=C(C)Nc2nnnn2C1c1ccccc1OC (stereo unspecified) | 1.1 | -0.12
Cc1ccnc(NS(=O)(=O)c2ccc3c(c2)CCO3)c1 | 0.61 | -0.06
NS(=O)(=O)c1cccc(NC(=O)CSc2nnc(-c3ccccc3F)n2C2CC2)c1 | 0.34 | -0.31
O=C(C1CCCN(c2ncccn2)C1)N1CCc2ccccc21 (stereo unspecified) | 0.12 | 0.67
COc1ccc(CC(=O)N2CCN=C2SC)cc1 | 0.38 | -0.43
CCCN(CCC)CCCNC(=O)c1ccc2c(Cl)c3c(nc2c1)CCC3 | 0.71 | 0.48
NS(=O)(=O)c1ccc(CNC(=O)C2(c3ccc(Cl)cc3)CC2)cc1 | 0.54 | -0.27
Cc1cccn2c(CNCCSc3nccn3C)c(C(=O)N3CCCCC3)nc12 | 0.11 | -0.85
N#CCCn1cnc2c(=S)nc[nH]c21 | 0.63 | -0.63
N#Cc1ccc(COC(=O)c2cnc(Cl)c(Cl)c2)cc1 | 0.17 | -1.55
N#Cc1c(-c2cccnc2)cc(-c2ccccc2)nc1N | 2.14 | -0.69
NC(=O)C1=C[C@H](c2ccc(C(F)(F)F)cc2)C[C@H](OCCCCO)O1 | 0.19 | 0.04
Cc1cc(C)c(C)c(C(=O)C2OC(=O)C(C)(C)C(=O)C2(C)C)c1C (stereo unspecified) | 0.8 | -0.49
O=C(CCCSc1ccccc1)Nc1nc(-c2ccccn2)cs1 | 0.24 | -0.27
O=C1C2CCCCN2C(=O)N1CCCCN1CCN(c2cccc(Br)c2)CC1 (stereo unspecified) | 0.26 | -0.36
OCCN(Cc1ccccc1)Cc1cccc(F)c1 | 0.99 | 1.01
CSc1ccc(/C=N/NC(=O)CN2CCN(Cc3ccc(Cl)cc3)CC2)cc1 | 2.17 | 0.27
CCOC(=O)c1c(C)[nH]c(C)c1S(=O)(=O)NCC1CCN(Cc2ccccc2OC)CC1 | 0.07 | 1.83
CCNC(=O)/N=C1/NC(=O)C(C(C)C)O1 (stereo unspecified) | 0.26 | -1.89
COC(CNC(=O)CSCc1nc(-c2ccc(SC)cc2)oc1C)OC | 0.2 | 2.01
[O-][n+]1ccc(C(O)c2ccccc2)cc1 (stereo unspecified) | 1.03 | -0.24
Cc1ccc([N+](=O)[O-])cc1S(=O)(=O)NCc1cccnc1 | 0.3 | 0.09
CN(C)CCNC(=O)Nc1cccc(Cl)c1Cl | 0.27 | -0.69
Cc1ccc(S(=O)(=O)N(C)C)cc1NC(=S)N(CCC#N)Cc1cccnc1 | 0.09 | -1.12
CCN(CCn1cccn1)C(=O)c1cc(COc2ccc(F)cc2Cl)on1 | 1.45 | 0.28
CC1CC(C)CN(CCCNC(=O)c2ccc3c(SCC(=O)O)c4c(nc3c2)CCC4)C1 (stereo unspecified) | 0.21 | -2.14
COc1ccc(C)cc1-n1nc2ccccc2n1 | 0.98 | 1.29

Compound profiles (already shown):
`Cc1ccc(S(=O)(=O)N(C)C)cc1NC(=S)N(CCC#N)Cc1cccnc1` across the screens: KCNQ2 enhance: 0.09; KCNQ2 enhance baseline: -1.12
`CCNC(=O)/N=C1/NC(=O)C(C(C)C)O1` (stereo unspecified) across the screens: KCNQ2 enhance: 0.26; KCNQ2 enhance baseline: -1.89

Later entries
SMILES | KCNQ2 enhance | KCNQ2 enhance baseline
COC(=O)c1cc(S(=O)(=O)NCc2ccccc2)cn1C | 0.4 | 1.05
CCOc1ccccc1C1C(C(=O)Nc2ccc(OC)cc2)=C(C)Nc2nc(CCCO)nn21 (stereo unspecified) | 0.64 | 0.72
Cc1ccc(NC(=O)CN(C)C(=O)COC(=O)/C=C/c2cccs2)cc1 | 0.06 | 1.67
CC1CC(C)(C)NC(=S)N1CC(=O)N(C)Cc1ccccc1 (stereo unspecified) | 0.15 | -0.2
Cc1ccc2[nH]c(=O)c(-c3nc4cc(C)ccn4c3NCc3ccco3)cc2c1 | 0.45 | 0.85
CC(C)COc1ccc(-c2nnc(-c3ccco3)o2)cc1 | 0.09 | 0.9
CC1CC(=O)Nc2ccccc2S1(=O)=O (stereo unspecified) | 0.02 | 0.34
COc1ccc(C2C(C(=O)c3sc(C)nc3C)=C(O)C(=O)N2CCN(C)C)cc1OC (stereo unspecified) | 0.54 | 0.72
COc1cccc(/C=C/C(=O)Nc2ccc(OC)nc2)c1 | 0.68 | 0.54
O=C(CCCCCN1C(=O)c2ccccc2C1=O)NC1CCCC1 | 0.29 | 0
O=C(Cn1c(NCCCO)nc2ccccc21)c1ccc([N+](=O)[O-])cc1 | 0.08 | 0.11
COc1ccc(Cc2nnc(Nc3ccc(C)cc3)o2)cc1OC | 1.1 | 0.57
O=C(c1cscn1)N1CCCC(N2CCN(c3ccc(F)cc3)CC2)C1 (stereo unspecified) | 0.01 | 0.09
CC(=O)Nc1cc(NC(C)=O)cc(C(=O)OCC(=O)Nc2ccc(S(=O)(=O)NC3=NCCCCC3)cc2)c1 | 0.67 | 2.98
COc1ccc(/C=N/NC(=O)c2c(-c3ccccc3)noc2C)cc1[N+](=O)[O-] | 1.1 | -2.48

3 successive records out of the list so far:
SMILES | KCNQ2 enhance | KCNQ2 enhance baseline
COC(=O)c1cc(S(=O)(=O)NCc2ccccc2)cn1C | 0.4 | 1.05
CCOc1ccccc1C1C(C(=O)Nc2ccc(OC)cc2)=C(C)Nc2nc(CCCO)nn21 (stereo unspecified) | 0.64 | 0.72
Cc1ccc(NC(=O)CN(C)C(=O)COC(=O)/C=C/c2cccs2)cc1 | 0.06 | 1.67

Next part:
SMILES | KCNQ2 enhance | KCNQ2 enhance baseline
O=P(O)(O)c1ccccc1OCCOCCOCCOCCOc1ccccc1P(=O)(O)O | 0.84 | -0.79
FC(F)(F)c1cc(Nc2ccccc2)nc(-c2ccccn2)n1 | 1.23 | 0.2
Cc1ccc(OCCCn2c(CO)nc3ccccc32)cc1 | 0.6 | -0.1
O=C(/C=C/c1ccc(Cl)c(Cl)c1)N1CCOCC1 | 0.62 | 0.39
O=C(Nc1ccc(N2CCCC2)cc1)c1ccccc1[N+](=O)[O-] | 1.08 | -0.1
Fc1ccc(NC(=S)N2CCc3ccccc32)cc1 | 0.09 | 1.08
CCN1C(=O)c2ccccc2Sc2ccc(C(=O)NCCCN3CCCCC3)cc21 | 2.23 | -0.64
COc1cccc(NS(=O)(=O)c2cn(C)c(=O)n(C)c2=O)c1 | 1.85 | 0
CCOC(=O)c1sc(C)c(C(=O)NCC(C)(C)CN(C)C)c1N | 1.49 | -0.02
N#CCCCCN1CCCC1 | 1.09 | 1.66
COc1ccc(C(=O)Nc2nc(CC(=O)NCCc3cccc(OC)c3)cs2)cc1 | 0.02 | -0.37
O=C(COc1ccccc1Cl)Nc1nnc(S(=O)(=O)N2CCCC2)s1 | 0.41 | 1.53
COc1ccc(C(=S)N2CCOCC2)cc1OC(=O)c1ccccc1 | 1.77 | 0.29
O=C(NCc1ccccc1)c1cccnc1 | 0.07 | 0.37
O=S(=O)(c1ccc(F)cc1)N1CCN(Cc2ccccn2)CC1 | 1.26 | -0.48
CCOC(=O)c1c(C)[nH]c(C(=O)Cn2nnc(-c3ccccc3)n2)c1C | 0.69 | 0.47
COc1ccccc1NS(=O)(=O)c1c(C(=O)N2CCCC2)c(C)n(C)c1C | 1.39 | 0.54
O=C(NCCCN1CCOCC1)C(=O)N/N=C/c1ccccc1O | 0.06 | -1.41
Cc1ccccc1NC(=O)c1cn2c(nc3ccccc32)c(C#N)c1C | 0.08 | 1.78
CC(C)C(=O)N(Cc1ccc2c(c1)OCO2)Cc1ccccn1 | 1.79 | 0.1
O=C(NCCc1ccccc1)C1(c2ccccc2)CC1(Cl)Cl (stereo unspecified) | 0.49 | 0.31
Cc1cccc2cc(CN(CC(C)C)S(=O)(=O)c3ccccc3)c(=O)[nH]c12 | 1.54 | 1.02
COc1cccc(C2CC(c3ccccc3)n3ncnc3N2)c1 (stereo unspecified) | 1.92 | -1.13
O=C(CCC1CCCC1)Nc1cccc(Cc2ccncc2)c1 | 6.32* | 0.47*
Cc1ccc(NC(=O)CCC(=O)NNC(=O)COc2ccc([N+](=O)[O-])cc2)c(C)c1 | 0.02 | 0.95
CC(C)(C)c1ccccc1NC(=O)CN1C(=O)NC(Cc2ccccc2)C1=O (stereo unspecified) | 0.98 | -1.33
CN(CC(=O)Nc1ccccc1C(F)(F)F)C(=O)COc1cccnc1[N+](=O)[O-] | 0.58 | -0.57
COc1ccc(-c2cn3c(C)c(C(=O)NC(C)(C)C)sc3n2)cc1 | 0.15 | -0.9
CCOCCCNC(=O)C1CCCN1C(=O)NC1CCCCC1 (stereo unspecified) | 0.22 | 0.02
OC(C[n+]1ccccc1)c1ccccc1 (stereo unspecified) | 1.15 | -0.69
O=C(NCCN1CCOCC1)c1cccc(S(=O)(=O)N2CCCCCC2)c1 | 0.83 | -1.93
Clc1ccc(Cn2ncc3c(N4CCCC4)ncnc32)cc1 | 0.55 | -2.09
C/C(=N/NC(=O)CN1CCN(S(=O)(=O)c2ccc(Br)cc2)CC1)c1ccco1 | 2.37 | -0.64
CC(=O)Nc1ccc(S(=O)(=O)NC(C)C(=O)OCC(=O)NC2CCCC2)cc1 (stereo unspecified) | 0.47 | -2.52
COC(=O)c1ccccc1NC(=O)C1CCN(C(=O)Cc2ccccc2)CC1 | 1.61 | -0.68
O=C1CCCN1CCC1CCCCN1Cc1nc(-c2cnccn2)no1 (stereo unspecified) | 0.84 | -2.34
O=C(NCCN1CCCCC1)/C(=C/c1ccco1)NC(=O)c1ccccc1 | 1.09 | -1.61
O=CN1N=C(c2ccccc2)CC1c1ccccc1[N+](=O)[O-] (stereo unspecified) | 0.39 | -0.61
O=S(=O)(NCCc1ccc2c(c1)OCCO2)c1cccs1 | 0.73 | 0.84
CCC(Sc1nc2ccc(C)cc2[nH]1)C(=O)O (stereo unspecified) | 0.58 | 1.6
O=C(C1CC=CCC1)N1CCC(CO)(Cc2ccc(Cl)cc2)CC1 (stereo unspecified) | 0.01 | 2.3
CC1CCCCC1NC(=S)NC(=O)c1cccs1 (stereo unspecified) | 8.39* | 2.25*
CCCCn1c(N)c(N(CCOC)C(=O)c2oc3ccc(OC)cc3c2C)c(=O)[nH]c1=O | 1.56 | 0
CCOC(=O)c1sc(NC(=O)Nc2ccc(F)cc2)nc1C | 0.44 | -1.33
CCNc1c(NC(=O)C2CCC(C)CC2)c(=O)oc2ccccc12 (stereo unspecified) | 1.51 | -1.46
Cc1cc(/C=C2\SC(=S)NC2=O)c(C)n1C1CC1 | 0.11 | 1.4
Cc1cc(C)c2nc(NNC(=O)c3cc(-c4cccs4)nc4ccccc34)sc2c1 | 1.67 | -1.66
CN(Cc1cnn(C)c1)Cc1nc(-c2ccc(Cl)cc2)no1 | 0.27 | 0.04
COc1ccc(S(=O)(=O)N2CN3CCN(C3)C2)cc1 | 0.35 | 0.16
O=S(=O)(Cc1ccc(Cl)cc1)NCc1cccnc1 | 0.61 | -0.06
O=C1CC(C2CCCO2)C(=O)N1c1ccc(Cl)c(Cl)c1 (stereo unspecified) | 0.69 | 1.84
COc1cc(OC)cc(C(=O)O/N=C(\N)c2ccccn2)c1 | 0.5 | -1.03

Some values from the list.
Entry for CN(Cc1cnn(C)c1)Cc1nc(-c2ccc(Cl)cc2)no1 in KCNQ2 enhance: 0.27
Entry for O=S(=O)(Cc1ccc(Cl)cc1)NCc1cccnc1 in KCNQ2 enhance baseline: -0.06

Four of the compounds above, with two lines to a compound.
Order of results: KCNQ2 enhance, KCNQ2 enhance baseline
- N#Cc1c(-c2cccnc2)cc(-c2ccccc2)nc1N
  2.14, -0.69
- NC(=O)C1=C[C@H](c2ccc(C(F)(F)F)cc2)C[C@H](OCCCCO)O1
  0.19, 0.04
- Cc1cc(C)c(C)c(C(=O)C2OC(=O)C(C)(C)C(=O)C2(C)C)c1C (stereo unspecified)
  0.8, -0.49
- O=C(CCCSc1ccccc1)Nc1nc(-c2ccccn2)cs1
  0.24, -0.27

These rows are one share of the data; count on the stated rates, not on these rows.
